Polio RdRp inh: poliovirus RNA polymerase inhibition | % elongation, % (compound at 16.7 µg/mL) | AID 588519 | poliovirus polymerase elongation, fluorescence polarization; hits give low values | 150,000 compounds, 0.66% hits | P03300; in the data active means % elongation below about 90%; further: some results filed as inactive read as strong as hits
Mtb MenB inh: blocks the Mycobacterium tuberculosis MenB enzyme; P9WNP5; MenB enzyme assay, absorbance read-out; some hits fall short of the stated cut; inhibition, %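 (about 12 µg/mL by stock and volumes)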; 100,000 compounds, 0.43% hits;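 active means mean of two replicates above 30%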;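 further: 0% = no compound and 100% = wells with inactive enzyme; the first replicate is given; strong numbers were not always called active; inactives centre near -10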
Target sequence (P9WNP5 whole entry, looked up): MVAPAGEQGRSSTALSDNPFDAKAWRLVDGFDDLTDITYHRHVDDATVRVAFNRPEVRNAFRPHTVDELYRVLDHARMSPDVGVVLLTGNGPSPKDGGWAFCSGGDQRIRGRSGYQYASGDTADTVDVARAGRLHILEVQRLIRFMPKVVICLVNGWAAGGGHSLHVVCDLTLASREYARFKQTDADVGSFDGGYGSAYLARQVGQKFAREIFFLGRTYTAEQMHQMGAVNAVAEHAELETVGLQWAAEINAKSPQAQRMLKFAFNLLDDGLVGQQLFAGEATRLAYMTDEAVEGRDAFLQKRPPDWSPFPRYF
MbtI inh: inhibitors of Mycobacterium tuberculosis siderophore enzyme MbtI | purified MbtI enzyme, fluorescence intensity read-out | 100,000 compounds, 0.89% hits | inhibition, %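 (about 17 µg/mL by stock and volumes)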 | AID 493033;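 active means above 50% in both replicates, above 80% if mildly self-fluorescent; inactive means the rest, strongly fluorescent compounds included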;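 further: 0% = mean of negative and 100% = mean of positive controls; one replicate is shown; some compounds called inactive have numbers as strong as hits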
Target sequence (P9WFX0 whole entry, looked up): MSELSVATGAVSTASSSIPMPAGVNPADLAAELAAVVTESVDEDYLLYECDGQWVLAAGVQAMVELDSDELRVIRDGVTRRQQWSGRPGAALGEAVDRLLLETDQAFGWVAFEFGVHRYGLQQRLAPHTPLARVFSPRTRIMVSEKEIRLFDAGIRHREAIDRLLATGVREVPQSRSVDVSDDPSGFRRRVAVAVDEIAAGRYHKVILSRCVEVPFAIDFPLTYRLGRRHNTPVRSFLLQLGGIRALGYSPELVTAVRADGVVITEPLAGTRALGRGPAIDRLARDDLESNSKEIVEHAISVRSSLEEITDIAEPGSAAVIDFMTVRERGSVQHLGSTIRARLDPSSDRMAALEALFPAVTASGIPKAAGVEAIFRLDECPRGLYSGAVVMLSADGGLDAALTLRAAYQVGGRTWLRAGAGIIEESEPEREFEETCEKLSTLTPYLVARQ
Polio RdRp inh intensity: recorded beside Polio RdRp inh, whose call it bears; % elongation; measured here: total intensity read-out; formula for this scale not given here;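 total fluorescence in place of polarization; lower means less elongation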
The depositor's hits bear a star; nt = no result given.

SMILES	Polio RdRp inh	Polio RdRp inh intensity	Mtb MenB inh	MbtI inh
CCc1ccc2nc(NC(=O)CCn3[nH]c(=O)ccc3=O)sc2c1	nt	nt	-1.9	6.6
O=C(Nc1cc2ccccc2s1)Nc1ccc(F)cc1F	102.0	102.0	-21.2	-0.3
CC1CC(C)CN(C(=O)Cn2c3ccccc3c3cn[nH]c(=O)c32)C1 (stereo unspecified)	100.0	102.0	-7.7	27.1
COc1ccc(-c2nnc(Nc3ccc(Cl)cc3)c3ccccc23)cc1	103.0	106.0	-17.7	-15.3
O=C(Oc1cc(Cl)cc(Cl)c1)C12CC3CC(CC(C3)C1)C2	108.0	104.0	-8.7	-8.0
CC1Nc2c(c(=O)oc3ccccc23)NC1=O (stereo unspecified)	105.0	105.0	-2.3	116.2
CC(C)(C)C1=NN(c2nc3ccc(Cl)cc3s2)C(=O)C1	106.0	109.0	8.8	60.2*
O=C(CCn1c(=O)c2cccn2c2ccc(F)cc21)NC1CCCCC1	104.0	103.0	-14.7	33.0
CC(=O)N(c1ccccc1)c1nc(CSc2nnnn2C)cs1	102.0	104.0	-0.5	-2.1
COC(=O)c1c(NC(=O)CN2CCN(c3ccccc3O)CC2)sc2c1CCC2	102.0	110.0	-10.6	28.2
CC(C(=O)O)n1cnc2scc(-c3ccc(Cl)cc3)c2c1=O (stereo unspecified)	104.0	105.0	-28.8	-5.9
CC(NC(=O)c1cc(-c2ccc(Cl)cc2)n[nH]1)c1ccc2c(c1)OCCO2 (stereo unspecified)	101.0	102.0	-2.5	-16.4
O=C(C1CC1)N1CCc2cc(Br)cc(S(=O)(=O)NCc3cccs3)c21	100.0	105.0	-1.1	-8.9
Cc1ccc(CN2CCc3[nH]c(=S)[nH]c(=O)c3C2)cc1	100.0	100.0	-35.0	6.8
CCN1CCCC1CNC(=O)c1ccc2c(c1)sc1nc(-c3cccc(OC)c3)cn12 (stereo unspecified)	96.0	91.0	-18.5	-55.5
O=C(CSc1cccc[n+]1[O-])Nc1ccccc1C(F)(F)F	104.0	108.0	nt	0.0
CCC1CCCCN1CC(C)(C)NS(=O)(=O)c1ccccc1 (stereo unspecified)	101.0	104.0	nt	-3.8
CC1(C)CC2CC(C)(CN2C(=O)c2cc(-c3ccccc3)on2)C1 (stereo unspecified)	105.0	101.0	-44.7	-18.8
Cc1nc(Cc2nnc(SCC(=O)N3c4ccccc4NC(=O)C3(C)C)o2)cs1	105.0	104.0	-23.6	-11.5
CC1CCCN(S(=O)(=O)c2ccc(/C(O)=C(\C#N)c3nc4ccccc4n3C)cc2)C1 (stereo unspecified)	104.0	104.0	-6.6	10.8

The last two entries of the section before lead into the next.
SMILES	Polio RdRp inh	Polio RdRp inh intensity	Mtb MenB inh	MbtI inh
Cc1nc(Cc2nnc(SCC(=O)N3c4ccccc4NC(=O)C3(C)C)o2)cs1	105.0	104.0	-23.6	-11.5
CC1CCCN(S(=O)(=O)c2ccc(/C(O)=C(\C#N)c3nc4ccccc4n3C)cc2)C1 (stereo unspecified)	104.0	104.0	-6.6	10.8
CCCN(Cc1nnc(-c2ccco2)o1)C(=O)/C=C/c1nc2ccccc2s1	101.0	107.0	-7.8	14.2
Cc1cccc(C(=O)N2CCCc3ccccc32)c1	113.0	109.0	-30.4	nt
CCNC(=O)/N=C1\NC(=O)C(C(C)C)O1 (stereo unspecified)	103.0	106.0	5.9	-4.4
CC1=CC(C)C2(COC(=O)NC3CCCCC3)COC3(CCCC3)C1C2C (stereo unspecified)	106.0	104.0	-15.1	nt
CCC1CN2CCc3cc(OC)c(OC)cc3[C@@H]2C[C@@H]1C[C@H]1NCCc2cc(OC)c(OC)cc21 (stereo partly specified)	102.0	100.0	-25.8	nt
CCCCNC(=O)c1ccc(CS(=O)(=O)c2cccc(C(F)(F)F)c2)o1	99.0	101.0	-23.4	5.4
N#CCCNCCN1CCOCC1	103.0	105.0	1.6	-0.8
COC(=O)C1=CN(C(C)C)C=C(C(=O)OC)C1c1cccs1	99.0	101.0	-64.0	102.2
Nc1nc(N)nc(-c2ccccc2)n1	101.0	105.0	-9.3	-2.2
COCCn1c(COc2ccc(Cl)cc2)nnc1SCC(=O)OC	102.0	103.0	-3.2	-7.2
CCOC(=O)Cc1sc(NC(C)=O)nc1-c1ccccc1	102.0	104.0	-7.5	-6.8
Cc1onc(-c2ccccc2)c1C(=O)NC(C)C	104.0	104.0	-31.5	-24.8
CCCCc1ccc(CC(=O)O)cc1	102.0	106.0	-23.2	2.1
COC(=O)C1=C(C)N(c2ccc(C(C)C)cc2)C(=O)/C1=C\c1ccco1	101.0	103.0	-4.0	-1.0
CC1Cc2ccccc2N1C(=O)C1CCN(S(=O)(=O)c2ccc(-n3cnnn3)cc2)CC1 (stereo unspecified)	102.0	102.0	39.3*	1.6
CSC1=NCCN1C(=O)C(C)(C)Oc1ccc(Cl)cc1	102.0	107.0	-26.3	-3.9
O=C(NCC(c1ccco1)N1CCCC1)c1ccc(Cl)cc1 (stereo unspecified)	103.0	102.0	1.7	-9.4
Cc1c(-c2ccc(C#N)cc2)oc2ccccc2c1=O	101.0	94.0	3.7	-20.0
NC(Cc1ccccc1)c1ccccc1 (stereo unspecified)	105.0	112.0	-22.4	-13.2
Clc1cccc(N2CCN(C3=Cc4ccccc4C3)CC2)c1	100.0	104.0	12.3	14.6

Grouped by structure: those above containing a furan ring, fused or not.
SMILES	Polio RdRp inh	Polio RdRp inh intensity	Mtb MenB inh	MbtI inh
CCCN(Cc1nnc(-c2ccco2)o1)C(=O)/C=C/c1nc2ccccc2s1	101.0	107.0	-7.8	14.2
CCCCNC(=O)c1ccc(CS(=O)(=O)c2cccc(C(F)(F)F)c2)o1	99.0	101.0	-23.4	5.4
COC(=O)C1=C(C)N(c2ccc(C(C)C)cc2)C(=O)/C1=C\c1ccco1	101.0	103.0	-4.0	-1.0
O=C(NCC(c1ccco1)N1CCCC1)c1ccc(Cl)cc1 (stereo unspecified)	103.0	102.0	1.7	-9.4

Back to the main list, repeating the three entries before the break.
SMILES	Polio RdRp inh	Polio RdRp inh intensity	Mtb MenB inh	MbtI inh
Cc1c(-c2ccc(C#N)cc2)oc2ccccc2c1=O	101.0	94.0	3.7	-20.0
NC(Cc1ccccc1)c1ccccc1 (stereo unspecified)	105.0	112.0	-22.4	-13.2
Clc1cccc(N2CCN(C3=Cc4ccccc4C3)CC2)c1	100.0	104.0	12.3	14.6
COC(=O)N1CCc2cc(OC)c(OC)cc2C1c1ccc(OC)c(OC)c1 (stereo unspecified)	100.0	101.0	8.1	-4.5
O=C(Nc1nc2c(Cl)cccc2s1)c1ccc2ncsc2c1	99.0	100.0	-17.1	-2.6
CC(=O)Nc1ccc(NC(=O)C(C)OC(=O)c2cc(C)oc2C)cc1 (stereo unspecified)	99.0	98.0	-9.4	7.2
CCN(CC)P(=NC(=S)N1CCCC1)(c1ccccc1)N(CC)CC	101.0	102.0	-34.2	-2.1
CC(C)N1CCCc2cc(CN)ccc21	31.0	130.0	29.2	nt
Cc1ccc(S(=O)(=O)CCSc2sc(C#N)c3c2C(=O)CC(C)(C)C3)cc1	104.0	108.0	-3.9	-7.7
COc1ccc(NC(=O)CN(c2ccc(C)cc2)S(=O)(=O)c2ccc(OC)cc2)cc1	103.0	106.0	-16.2	-3.2
CC(C(=O)Nc1ccc2c(c1)OCO2)N1CCN(S(=O)(=O)/C=C/c2ccccc2)CC1 (stereo unspecified)	108.0	107.0	-10.8	-7.8
CC(Oc1cccc2c1OC(C)(C)C2)C(=O)N(C)c1ccccc1 (stereo unspecified)	99.0	101.0	-11.0	-0.2
CC(=O)N1CCc2cc(C(O)CN(C)Cc3ccccc3)ccc21 (stereo unspecified)	101.0	107.0	-7.0	-7.5
O=C(OCn1nnc2ccccc2c1=O)C(c1ccccc1)c1ccccc1	105.0	107.0	-54.4	-7.5
O=C1CS/C(=N\c2nccs2)N1	117.0	146.0	-28.1	-0.6
CC(C)S(=O)(=O)c1cscc1N1C(=O)c2ccccc2C1=O	104.0	112.0	-17.0	-7.2
CCN(CC)C(=S)Oc1ccc(C#N)cc1	105.0	106.0	-7.4	-7.2
COC(=O)CN(c1ccc2c(c1)OCCO2)S(C)(=O)=O	101.0	100.0	2.0	-7.6
COc1cccc(OCc2nc3ccccc3[nH]2)c1	100.0	101.0	7.4	2.1
CCN1CCN(c2ccc(N)cc2C)CC1	97.0	92.0	-17.4	-9.3
CC(=O)Nc1cccc2c1Cc1ccccc1-2	100.0	102.0	-13.2	-5.2
O=C(NC1CCCCC1)c1noc2c1CCc1ccccc1-2	100.0	104.0	-6.4	-1.5
O=c1c2cnn(-c3cccc(Cl)c3)c2ncn1CC1CCCO1 (stereo unspecified)	108.0	107.0	-7.6	3.2
O=C1c2ccccc2O[C@@H](c2ccc(Cl)cc2)[C@@H]1O	104.0	111.0	-4.9	-14.9
NNC(=O)c1cccc(S(=O)(=O)Nc2cccc(C(F)(F)F)c2)c1	102.0	104.0	-28.1	-2.2
C=CCOc1ccc(C2/C(=C(\O)c3ccc(OC)cc3)C(=O)C(=O)N2CCN2CCNCC2)cc1 (stereo unspecified)	100.0	102.0	-8.4	7.4
O=S(=O)(Nc1cc(C(F)(F)F)ccc1N1CCc2ccccc2C1)c1cccc2nonc12	101.0	99.0	-17.2	-4.0
Cc1occc1C(=O)N1CCN(c2ccc(Cl)c(Cl)c2)CC1	100.0	104.0	-9.4	13.9
Nc1cccc2c1C(=O)N(c1ccc(Cl)c(Cl)c1)C2=O	97.0	106.0	-3.1	-6.0
CCN(Cc1ccncc1)Cn1c(=S)oc2ccccc21	102.0	98.0	-7.2	74.8*
COc1ccc(OCc2cccc(C(=O)O)c2)cc1	100.0	98.0	6.5	19.9
CC(C)Cn1c(=O)c(C2=NS(=O)(=O)c3ccccc3N2)c(O)c2ccccc21	103.0	95.0	-26.6	-9.8
CCOC(=O)c1cnc(SCC(=O)N2CCCCC2C)nc1N (stereo unspecified)	100.0	104.0	4.4	14.2
O=C1CSC(c2ccccc2)N1C1CCCCC1 (stereo unspecified)	105.0	110.0	-14.8	-4.1
Cc1c(Cc2ccccc2)c(-n2ccnc2C)n2c(nc3ccccc32)c1C#N	101.0	106.0	7.2	0.3
CN(CC(=O)Nc1ccccc1C(=O)Nc1ccccc1)C1CCS(=O)(=O)C1 (stereo unspecified)	103.0	107.0	-14.9	-3.8
COc1ccc(NC(=O)c2cc(-c3ccco3)nc3ccccc23)cc1Cl	102.0	109.0	nt	1.2
O=C(O)CSCC(=O)N1CCN(Cc2ccc3c(c2)OCO3)CC1	99.0	105.0	-12.0	-6.7
COC(=O)c1c(C)oc(C)c1S(=O)(=O)N1CCOCC1	104.0	107.0	-2.3	-7.4
Cc1ccc(NC(=S)NC(=O)C23CC4CCC(CC(C4)C2)C3)cc1	102.0	108.0	1.8	-4.4
O=C(NC(=S)Nc1ccncc1)c1ccccc1	105.0	119.0	-13.8	-9.4
CCC(C)NC(=O)C1CCN(S(=O)(=O)c2ccc3c(c2)CCCC(=O)N3)CC1 (stereo unspecified)	102.0	101.0	-3.5	-15.7
COc1ccc(-c2noc(CNC(=O)CC(c3ccccc3)c3ccccc3)n2)cc1	101.0	101.0	-12.0	-5.9
O=C1CCN(Cc2ccccc2)C(=S)N1	104.0	103.0	-31.7	-1.4
CN1C(=O)c2ccc(-c3nc4ccc(Cl)cc4c(=O)o3)cc2C1=O	100.0	102.0	3.7	113.4
Fc1cccc(Cl)c1CN1CCN(CCCNc2ncnc3scc(-c4ccccc4)c23)CC1	105.0	107.0	-22.2	-6.7
O=C(/C=C/c1ccc2c(c1)OCO2)OCc1ccccc1	103.0	103.0	nt	9.4
CCCn1c(=O)c(Br)cn(-c2ccccc2C)c1=O	101.0	100.0	-2.4	-2.3
O=C(CCC(=O)N1CCOc2ccccc21)NCc1ccco1	105.0	100.0	8.3	1.9
Cc1c(Sc2ccc(Cl)cc2)c(=O)[nH]c2cc3c(cc12)OCO3	103.0	103.0	-20.9	-8.6
Cc1ccccc1CNCc1ccco1	100.0	109.0	10.5	nt
O=C(/C=C/c1ccco1)/C=C/c1ccco1	80.0*	78.0*	-44.4	26.2
NNc1ncnc2sccc12	106.0	109.0	-0.7	21.4
COC12CCCC(C(=O)O)(CCC1)C2	100.0	104.0	-3.1	nt
O=C1CC(N2CCCC2)C(=O)N1c1ccccc1 (stereo unspecified)	103.0	105.0	-13.3	62.5*
COc1ccc(S(=O)(=O)c2cn(CC(=O)Nc3cccc(OC)c3)c3nc(C)ccc3c2=O)cc1	102.0	106.0	5.7	37.1
COc1cccc(Cn2cc(NC(=O)Nc3ccc(F)cc3F)cn2)c1	103.0	103.0	-7.6	-15.8
c1ccc2sc(C3CCCN3Cn3nnc4ccccc43)nc2c1 (stereo unspecified)	104.0	107.0	-29.9	5.3
OC(c1ccc(Cl)cc1)C(O)c1nc2ccccc2[nH]1 (stereo unspecified)	100.0	99.0	0.5	-6.4
CCc1ccc(C2NC(=O)c3c(sc4c3CCN(C)C4)N2)cc1 (stereo unspecified)	104.0	109.0	-17.4	163.9
Cc1c(C(=O)N=c2sc3ccccc3n2C)sc2nc3n(c(=O)c12)CCC3	101.0	110.0	-2.9	-4.4
O=C(CN1CCC(NC(=O)NC2CCCCC2)CC1)Nc1cccc(I)c1	99.0	102.0	3.1	6.2

Bioassay records as filed in PubChem.
